VDR inhibitor: blocks the human vitamin D receptor | AID 504847 | P11473 | VDR-SRC2-3 peptide fluorescence polarization, 2 h | 0.93% of 400,000 active | Potency, µM, for inactives: max response, negative = inhibition, usual class: inhibitors; active = well fitted inhibition curve with a large enough effect; inconclusive = small, poorly fitted or top-dose-only effect, or another doubt; inactive = no such curve, though single readings can be large or run the other way; note: series mostly up to about 120 µM
Target sequence (P11473 whole entry, looked up): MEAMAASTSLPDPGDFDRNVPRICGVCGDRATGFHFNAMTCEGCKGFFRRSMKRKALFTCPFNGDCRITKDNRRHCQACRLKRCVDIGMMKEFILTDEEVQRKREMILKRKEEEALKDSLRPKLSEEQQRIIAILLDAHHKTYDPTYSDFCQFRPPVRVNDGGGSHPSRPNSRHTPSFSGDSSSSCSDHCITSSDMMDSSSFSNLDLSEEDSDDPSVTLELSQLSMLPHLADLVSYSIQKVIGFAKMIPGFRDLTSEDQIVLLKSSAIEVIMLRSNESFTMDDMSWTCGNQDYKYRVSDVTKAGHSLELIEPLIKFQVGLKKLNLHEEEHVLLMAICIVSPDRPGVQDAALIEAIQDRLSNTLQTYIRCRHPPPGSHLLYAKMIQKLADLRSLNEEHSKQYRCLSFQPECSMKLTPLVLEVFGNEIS
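The screen uses fluorescence polarization to detect compounds that interfere with recruitment of the SRC2-3 coactivator peptide to VDR; plates are read after 2 h at room temperature.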
* hit, by the source's call; ? = inconclusive. % is set by controls: 0 for no effect and ±100 for the full control effect; potency is the fitted concentration of half-maximal effect.

| Molecule | VDR inhibitor |
| --- | --- |
| COc1ccccc1-c1nnc(SCC(=O)NC2CCCCC2)n1N | -7% |
| Cc1[nH]c2ccccc2c1C(=O)C(=O)NC1CC(=O)N(c2cccc(F)c2)C1 (stereo not drawn) | 12% |
| CN(C)CCC(=O)NCC1OCCc2ccccc21 (stereo not drawn) | -16% |
| Cc1cc(C)c(NC(=O)c2ccoc2C)c(C)c1 | -4% |
| O=C(/C=C/c1cccs1)N1CCC2(CC1)Oc1ccc(Cl)cc1C(=O)C21CC(c2cccnc2)=NO1 (stereo not drawn) | 3% |
| COc1ccc(S(=O)(=O)Nc2cccc3c2O[C@H](CN(C)CC2CCCCC2)[C@@H](C)CN([C@H](C)CO)C3=O)cc1 | 14% |
| CCC(C(=O)Nc1ccc(C(=O)OC)cc1)n1nc(-c2ccc(C)c(C)c2)ccc1=O (stereo not drawn) | 11% |
| CCOc1cccc(C(=O)N2CCCCC2c2cccnc2)c1 (stereo not drawn) | -11% |
| COc1ccc(NC(=O)CSc2nc(N)c3cc4c(nc3n2)CC(C)(C)OC4)cc1 | 19% |
| CC(=O)Nc1ccccc1NC(=O)c1cc(C)cc(C)c1 | ? |
| O=C(Cn1cc2c(n1)CCCC2)N1CCCc2ccccc21 | -14% |
| COc1cc(C)c2c(=O)cc(-c3ccccc3)oc2c1 | -9% |

Further results
| Molecule | VDR inhibitor |
| --- | --- |
| COc1ccccc1CNC(=O)C(C)NS(=O)(=O)c1ccc(Br)cc1 (stereo not drawn) | 15% |
| CCC(C)(C(=O)NC1CCCC1)N(Cc1ccco1)C(=O)c1ccc2c(c1)OCO2 (stereo not drawn) | -10% |
| CCc1ccc(C2N(c3ccc(OC)cc3)C(=O)C3CCCN32)cc1 (stereo not drawn) | 3% |
| COC(=O)c1cc(NC(=O)c2cccc([N+](=O)[O-])c2C)ccc1Cl | -4% |
| COc1ccc(-c2cc(C(=O)N3CCc4ccccc4C3)no2)cc1OC | -2% |
| Cc1noc(-c2ccc(-c3noc(-c4ccc([N+](=O)[O-])c(C)c4)n3)cc2)n1 | 8% |
| N#Cc1c(NC(=O)CN2CCOCC2)oc(-c2ccccc2)c1-c1ccccc1 | 13% |
| CCOc1ccc(NC(=O)COc2ccc(OC)cc2)cc1 | -19% |
| C[C@H]1COc2c(N3CCN(C)CC3)c(F)cc3c(=O)c(C(=O)NCc4ccco4)cn1c23 | 3% |
| Nc1c(N2CCCC2)cc(Cl)c2nonc12 | ? |
| Cc1cccc(NC(=O)c2nc[nH]c2C(=O)N[C@@H](CC(C)C)C(=O)OCc2ccccc2)c1 | -9% |
| COc1ccccc1CNS(=O)(=O)CCNCc1ccco1 | -8% |

(more compounds)
| Molecule | VDR inhibitor |
| --- | --- |
| Cc1cc(C)nc(NC(=O)CSc2nccc(C)n2)n1 | 1% |
| CCOc1ccc(S(=O)(=O)NCc2ccccc2OC)cc1 | -8% |
| Cc1ccc(S(=O)(=O)N2CCOCC2)cc1NC(=O)CSCc1c(C)noc1C | 33% |
| CC(C)COc1ccc(S(=O)(=O)NNC(=O)c2cc3ccccc3o2)cc1 | -4% |
| O=C(CSc1nc2[nH]ncc2c(=O)[nH]1)Nc1ccc(F)cc1 | -7% |
| COC(=O)c1cccc(NS(=O)(=O)c2ccc(OC)c(OC)c2)c1C | -3% |
| O=C(CSc1nc2c(c(=O)n1-c1ccc(Cl)cc1)SCC2)NCC1CCCO1 (stereo not drawn) | -9% |
| COc1ccccc1OCc1ccc(C(=O)Nc2ccc(Cl)cn2)o1 | -4% |
| C#CCOCCOCCOCCNc1nc(N2CCN(C(=O)CCCCCCCCCCNC(=O)[C@H](CO)n3cc(CCCSC)nn3)CC2)nc(N2CCN(C(=O)CCCCCCCCCCNC(=O)[C@H](CCCCN)n3cc(CCO)nn3)CC2)n1 | 22% |
| COC(=O)c1ccc(/C=N/Nc2nc(N3CCCCC3)nc(N3CCCCC3)n2)cc1 | -3% |
| Cc1ccc(-n2c(CCc3ccccc3)n[nH]c2=S)cc1C | -25% |
| Cc1ccc(-c2nc3cnccn3c2Nc2ccccc2)o1 | ? |

Further results
| Molecule | VDR inhibitor |
| --- | --- |
| O=C1NC(c2ccc(Br)cc2)Nc2sc3c(c21)CCC3 (stereo not drawn) | -8% |
| Fc1ccc(CNCc2ccccc2Cl)cc1 | 9% |
| CCOC(=O)N1CCc2c(sc3c2c(=O)n(CCc2ccccc2)c(=O)n3Cc2c(F)cccc2Cl)C1 | -4% |
| COc1cccc(C(=O)CSc2nnc(-c3cc(OC)cc(OC)c3)o2)c1 | 1% |
| Cc1cc(C)n(C(=O)CSc2nnc(SCC(=O)n3nc(C)cc3C)s2)n1 | 15% |
| CC(c1ccccc1)C1CC(=O)N(c2ccc(C(=O)O)cc2)C1=O (stereo not drawn) | 5% |
| COc1ccc(Cl)cc1NC(=O)CSc1nnc(C2CC2)n1C | -3% |
| Cc1cccc(N2CCN(C(=O)Cn3ncc4c5ccccc5n(C)c4c3=O)CC2C)c1 (stereo not drawn) | 4% |
| O=C(C1CCCN(S(=O)(=O)c2cccc3nsnc23)C1)N1CCc2ccccc21 (stereo not drawn) | 8% |
| CCOC(=O)C1(CCc2ccccc2)CCN(C(=O)c2occc2C)CC1 | -2% |
| O=C(CSc1nnc(C2CC2)n1-c1ccccc1)NCCc1ccc(F)cc1 | 9% |
| CCCSc1ncc(Cl)c(C(=O)N(Cc2ccc(Cl)cc2)Cc2ccco2)n1 | 11% |

Going on with the list.
| Molecule | VDR inhibitor |
| --- | --- |
| COc1cc(CN2CCc3ccccc3C2)cc([N+](=O)[O-])c1O | -18% |
| Cn1cc(CCNC(=O)CCc2nnc(CCCCc3ccccc3)o2)cn1 | 5% |
| COc1ccc(C(=O)Nc2ccc(S(=O)(=O)NC(C)C)cc2)cc1 | 0% |
| O=C(O)C1CCN(c2ccc(S(=O)(=O)N3CCC(C(=O)O)CC3)cc2[N+](=O)[O-])CC1 | -20% |
| CC(Cl)OC(=O)Nc1cccc2cccnc12 (stereo not drawn) | 5% |
| COC(=O)[C@H](CCSC)NC(=O)c1cccnc1SC | -15% |
| Cc1ccc(S(=O)(=O)N2[C@@H](c3ccc(Cl)cc3)C(C(=O)O)=CC[C@H]2c2cccs2)cc1 | -8% |
| N#Cc1c(SCC(=O)Nc2ccccc2C(F)(F)F)sc2c(O)cc(=O)[nH]c12 | 22% |
| Cc1c(C(c2cccc(O)c2)c2c(C)n(C)n(-c3ccccc3)c2=O)c(=O)n(-c2ccccc2)n1C | -2% |
| CCCC(=O)Nc1ccc(S(=O)(=O)Nc2cc(OC)nc(OC)n2)cc1 | 5% |
| CCCCN(CC)C(=O)c1cc2cc3ccc(OC)cc3nc2o1 | 11% |
| Cc1ccc(C(=O)NCCc2csc(-c3cccnc3)n2)cc1 | -22% |

(list continues)
| Molecule | VDR inhibitor |
| --- | --- |
| S=c1[nH]nc(Cc2noc3ccccc23)n1-c1ccc(Cl)cc1 | -23% |
| COc1ccc(CCNC(=O)CCc2c(C)nc3nc(C)nn3c2C)cc1OC | 0% |
| Cc1cc(C)nc(NS(=O)(=O)c2ccc(NC(=O)CSc3nc(-c4ccccc4)c(C#N)c(=O)[nH]3)cc2)n1 | 16% |
| Cn1c2c(c(=O)n(C)c1=O)C(C(F)(F)F)(C(F)(F)F)N=C(c1ccccc1Cl)N2 | -3% |
| CCCSc1nn2c(=O)c3ccccc3nc2s1 | 9% |
| Cc1ccc(NC(=O)N2CCc3c([nH]c4ccccc34)C2c2ccccc2F)c(Cl)c1 (stereo not drawn) | 12% |
| COc1ccc(-c2nc3cc(C)ccn3c2NC(=O)c2cccc(F)c2)cc1 | 5% |
| COC(=O)c1c(NC(=O)c2ccccc2)sc2c1CC(C)(C)OC2 | 7% |
| Cc1ccc(Nc2c3c(nc4ccccc24)CCC3)cc1 | 8% |
| O=C(CSc1nc(-c2ccccc2)cs1)NCCCN1CCCC1=O | 14% |
| Cn1ccsc1=NC(=O)c1cc(S(=O)(=O)N2CCOCC2)ccc1Cl | -5% |
| COc1ccc(C(=O)Nc2c(Cl)cc(Cl)cc2C(=O)NCCN2CCOCC2)cc1 | 5% |

(listing goes on)
| Molecule | VDR inhibitor |
| --- | --- |
| COc1ccc(NC(=O)CSC2=Nc3ccccc3C3=NC(CCC(=O)NCc4ccco4)C(=O)N23)cc1 (stereo not drawn) | 9% |
| Cc1c(N2C(=O)c3ccc(F)cc3C2=O)c(=O)n(-c2ccccc2)n1C | -24% |
| Cc1cc(NC(=O)C2CC(=O)N(c3ccccc3Cl)C2)no1 (stereo not drawn) | 2% |
| O=C(N/N=C/c1ccc(C(F)(F)F)cc1)c1ccncc1 | 1% |
| CCOCC(=O)N1CCN(c2cccc(Cl)c2)CC1 | 18% |
| COc1cc([C@@H]2c3cc4c(cc3[C@@H](OC3OC5COC(C)OC5C(O)C3O)[C@H]3COC(=O)[C@H]23)OCO4)cc(OC)c1O (stereo partly drawn) | 0% |
| CCOc1ccc(S(=O)(=O)Nc2ccc(C(=O)NCc3ccncc3)cc2)cc1 | -20% |
| O=C(NCC(=O)N1CCCC(C(F)(F)F)C1)c1ccccc1F (stereo not drawn) | -17% |
| CC(=O)Nc1ccc(NC(=O)c2ccc(COc3ccc(C)cc3)o2)cc1 | -11% |
| Cc1ccc(S(=O)(=O)NCCNC(=O)c2ccccc2)cc1 | -1% |
| O=C1c2ccccc2C(=O)N1CCn1c(=O)oc2ccccc21 | 0% |
| CCOC(=O)C1=Nc2ccccc2C1=[N+]=[N-] | ? |

Four of the compounds above, with each value named:
Cc1cc(NC(=O)C2CC(=O)N(c3ccccc3Cl)C2)no1 (stereo not drawn)
  VDR inhibitor: 2%

CCOc1ccc(S(=O)(=O)Nc2ccc(C(=O)NCc3ccncc3)cc2)cc1
  VDR inhibitor: -20%

Cc1c(N2C(=O)c3ccc(F)cc3C2=O)c(=O)n(-c2ccccc2)n1C
  VDR inhibitor: -24%

CCOCC(=O)N1CCN(c2cccc(Cl)c2)CC1
  VDR inhibitor: 18%

Next section:
| Molecule | VDR inhibitor |
| --- | --- |
| O=C(Nc1ccnn1C1CCN(C/C=C/c2ccccc2)CC1)c1ccccc1 | 1% |
| CCOC(=O)N1CCC(N2Cc3cccc(C(=O)Nc4ccc(S(=O)(=O)N(CC)CC)cc4)c3C2=O)CC1 | 11% |
| CCOc1ccc(S(=O)(=O)NCCC(=O)Nc2ncccc2C)cc1 | 8% |
| COc1ccc(Nc2nc(NN)nc(Nc3ccc(OC)cc3)n2)cc1 | -6% |
| CCN(CC)CCNC(=O)c1ccc(NC(=O)/C=C/c2cc(OC)c(OC)c(OC)c2)cc1 | -2% |
| CCCSc1nnc2c(n1)OC(c1cccs1)Nc1ccc(Br)cc1-2 (stereo not drawn) | -20% |
| Cc1ccc(Nc2nc(-c3sc(C)nc3C)cs2)cc1 | -14% |
| C[C@H](NC(=O)c1nc[nH]c1C(=O)N[C@@H](Cc1ccccc1)C(=O)OCc1ccccc1)C(=O)OC(C)(C)C | -23% |
| CCCn1nc(C(=O)Oc2ccc3c(C)cc(=O)oc3c2)c2ccccc2c1=O | -19% |
| CCc1ccccc1NC(=O)CSc1nnc(COc2ccccc2Cl)o1 | -13% |
| CCC(C)C(NC(=O)CCC(=O)OCC(=O)[C@@]1(O)CCC2[C@@H]3CCC4=CC(=O)C=C[C@]4(C)C3[C@@H](O)C[C@@]21C)C(=O)O (stereo partly drawn) | 2% |
| CCOC(=O)C1CCCN(C(=O)Nc2cccc(Cl)c2)C1 (stereo not drawn) | 2% |

The last four entries of the part above lead into the next:
| Molecule | VDR inhibitor |
| --- | --- |
| CCCn1nc(C(=O)Oc2ccc3c(C)cc(=O)oc3c2)c2ccccc2c1=O | -19% |
| CCc1ccccc1NC(=O)CSc1nnc(COc2ccccc2Cl)o1 | -13% |
| CCC(C)C(NC(=O)CCC(=O)OCC(=O)[C@@]1(O)CCC2[C@@H]3CCC4=CC(=O)C=C[C@]4(C)C3[C@@H](O)C[C@@]21C)C(=O)O (stereo partly drawn) | 2% |
| CCOC(=O)C1CCCN(C(=O)Nc2cccc(Cl)c2)C1 (stereo not drawn) | 2% |
| COc1ccc(/C=C2\SC(=S)N(CCC(=O)Nc3cccc(C(=O)O)c3)C2=O)cc1 | -12% |
| CCN(C(=O)c1ccc(C(=O)N(CC)c2ccccc2C)cc1)c1ccccc1C | -22% |
| Cc1c(Cc2c(C)n(C)n(-c3ccccc3)c2=O)c(=O)n(-c2ccccc2)n1C | -14% |
| CCOC(=O)CNC(=O)c1ccc2[nH]c3c(c2c1)CCCC3 | -5% |
| Cc1cc(C)nc(N(C#N)CCOc2ccccc2)n1 | -1% |
| Cc1cc2nc(-c3cccc(NC(=O)COc4ccc(Cl)c(C)c4)c3)oc2cc1C | -19% |
| CC(=O)Nc1ccc(S(=O)(=O)NCCC(=O)Nc2ccc(C)c(F)c2)cc1 | 13% |
| Oc1ccc(Cl)cc1C1=NNC(c2cc(Br)cc3c2OCOC3)C1 (stereo not drawn) | ? |
| Cc1nn(Cc2ccccc2Cl)c2sc(C(=O)Nc3ccccc3N3CCOCC3)cc12 | 10% |
| CC(C)CNC(=O)c1ccc2c(c1)C(=O)N(Cc1ccco1)C2=O | 4% |
| Cc1cc(C(=O)OCc2nc3ccccc3s2)c(C)o1 | -2% |
| COC(=O)c1sc(N2C(=O)c3oc4ccc(C)cc4c(=O)c3C2c2ccc(O)c(OC)c2)nc1C (stereo not drawn) | -4% |

Additional results:
| Molecule | VDR inhibitor |
| --- | --- |
| COc1ccc(C)cc1NC(=O)c1[nH]c(C)c(C(C)=O)c1C | 17% |
| COc1ccc(S(=O)(=O)Nc2cccc(N(C)S(C)(=O)=O)c2)cc1Br | 13% |
| O=C(O)c1ccc(Oc2ccc([N+](=O)[O-])cc2)c([N+](=O)[O-])c1 | -14% |
| CCOc1ccc(CNC(=O)CCS(=O)(=O)c2cc3c4c(c2)CCN4C(=O)CC3)cc1 | -1% |
| CCOCCn1c(CN2CCC(Cc3ccccc3)CC2)nc2c1c(=O)n(C)c(=O)n2C | -9% |
| Clc1cccc(-c2nc(NCCCN3CCOCC3)c3ccccc3n2)c1 | 7% |

Screening data: PubChem, National Center for Advancing Translational Sciences (NCATS)

Only part of the results is shown. The share of hits here may be higher or lower than overall.
